# NPYLR7 ag: activates Aedes aegypti NPYLR7 receptor; activation, % at 10 µM; HEK293T NPYLR7/Galpha15, GCaMP6s calcium fluorescence; 270,000 tested, 0.15% active; AID 1259423; in the data active = activation above about 40%;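 also: 0% = vehicle and 100% = reference agonist at the receptor; some compounds past the cut are filed as inactive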
# NPYLR7 ag max-min: further read-out of NPYLR7 ag, marked with its call; activation, %; measured here: Max-Min RFU normalised activation; some inactives read as strong as hits;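 span of the calcium signal over five minutes; 0% = vehicle and 100% = native peptide agonist; compound fluorescence can raise it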
# * marks the source's active call; other numbers are inactive results; & = joins results of further samples. Only part of the results is shown. The share of hits here may be higher or lower than overall.
SMILES,NPYLR7 ag,NPYLR7 ag max-min
c1ncn(CCN2CCN(C3CCC4(CCNCC4)CC3)CC2)n1,13,10
CC(=O)N1CCN(C(=O)CCNc2nc(-c3cc(Cl)cc(Cl)c3)no2)CC1,2,0
CCOc1ccc(C(=O)NCCNc2cc(-n3cccn3)nc(C)n2)cc1,-16,-17
COc1ccc2[nH]c(S(=O)Cc3ncc(C)c(OC)c3C)nc2n1 (configuration not stated),3,2
C=CCC(=O)N(CC)CCOc1cccc(C)c1,-6,-9
CN(C)C(=O)c1ccc(N2CCC(NCCc3ccccc3F)CC2)cc1,20,10
COc1ccc(Nc2ncccc2C(=O)NC(c2ccccc2)c2ccccc2)cc1,-9,-14
Cc1ccc(-c2cc(O)c3c(c2)CN(C(=O)C(C)N2CCCC2=O)CCO3)cc1 (configuration not stated),0,8
CC(C)S(=O)(=O)c1ccc(C(=O)N(Cc2ccncc2)c2nc3c(F)cccc3s2)cc1,-3,-8
CC(=O)c1c(C)nc2sccn12,5,11
CC1CN(Cn2c(=S)oc3ccccc32)CC(C)O1 (configuration not stated),2,-5
CC(=O)Nc1ccc(CN2CCC2(C)C(=O)NCc2cccc(C(F)(F)F)c2)cc1 (configuration not stated),7,1

# Some of these compounds in order of SMILES length, rising:
SMILES,NPYLR7 ag,NPYLR7 ag max-min
CN(C)C(=O)c1ccc(N2CCC(NCCc3ccccc3F)CC2)cc1,20,10
COc1ccc(Nc2ncccc2C(=O)NC(c2ccccc2)c2ccccc2)cc1,-9,-14
Cc1ccc(-c2cc(O)c3c(c2)CN(C(=O)C(C)N2CCCC2=O)CCO3)cc1 (configuration not stated),0,8

# Going on with the list:
SMILES,NPYLR7 ag,NPYLR7 ag max-min
CC(Oc1cc(C(F)(F)F)cc(C(F)(F)F)c1)C(=O)NC(N)=O (configuration not stated),-5,-4
COc1ccc(NC(=O)CCC2CCCN(Cc3ccc4cc(F)ccc4n3)C2)c(C)c1 (configuration not stated),5,2
O=c1nc(/C=C/c2ccc(Cl)cc2)cc(C(F)(F)F)[nH]1,-3,-5
COc1cc(/C=N\n2nnnc2N)ccc1OS(=O)(=O)c1ccc(C)cc1,14,11
Cc1c(C)n2c3c(=O)n(Cc4ccccc4F)c(=O)n(C)c3nc2n1CCO,-4,-7
CC(O)c1cc2ccccc2o1 (configuration not stated),-5,0
Cc1ccc(NC(=O)CCCn2nc(-c3ccccc3)ccc2=O)cc1,7,9
CNC(=O)c1c(NC(=O)/C=C/c2ccc(C)cc2)sc2c1CCCC2,-7,-12
O=C1C2CCCCC2C(=O)N1c1n[nH]c(CCc2ccccc2)n1 (configuration not stated),-2,-4
CC1CCCC(C)N1CC(O)c1ccccc1 (configuration not stated),1,-3
COCCN(Cc1c(-c2cccc(C)c2)noc1N1CCCC1)C(=O)c1ccc(F)cc1,0,-1
CCc1cc(=O)[nH]c(CN2CCCN(C(=O)c3ccsc3)CC2)n1,-1,-1
Cc1nc2c(C)cccn2c(=O)c1NC(=O)c1cccc(Br)c1,-3,-3
Clc1ccc(COC(Cn2ccnc2)c2ccc(Cl)cc2Cl)c(Cl)c1 (configuration not stated),1&-3&-5&-1,-4&-8&-10&-6
COc1ccc(CCNC(=O)N(C)C(C)c2nc(C)sc2C)cc1 (configuration not stated),10,5
COc1cc(NC(=O)CN2CCC(C(=O)N3CCCCCC3)CC2)cc(OC)c1,3,4
CC1CCN(S(=O)(=O)c2ccc(NCC#Cc3ccccc3)c([N+](=O)[O-])c2)CC1,4,7
O=C(CN1CCN(c2ccc(F)c(F)c2)C1=O)NCCO,-1,-2
O=C(Cc1csc(-c2cccc(Br)c2)n1)Nc1cccc(Cl)c1N1CCOCC1,6,3
COc1ccc(Nc2cc(C)nc3c4c(C)cc(C)nc4nn23)cc1,2,15
O=C(C1CCC(=O)N(C2CCCC2)C1)N1CCC(Oc2ccccc2Cl)CC1 (configuration not stated),16,9
COc1cccc(/C=C(\C#N)c2nn(CCO)c(N)c2C#N)c1OCc1ccc(Cl)cc1Cl,-3,-6
COc1ccc(-c2c(C)n[nH]c2C)cn1,-4,-14
COC(=O)c1cccc(NC(=O)c2ccc(CSc3nc(N4CCCC4)cc(C(C)(C)C)n3)o2)c1,-9,-7
CN(CC1CCN(CCc2ccc(F)cc2)CC1)C(=O)c1coc2c1C(=O)CCC2,3,-4
O=C(NCc1ccccc1)c1csc(Nc2ccncn2)n1,-2,-4
COc1ccc(Cl)cc1C(=O)Nc1cc(C)nn1-c1ccncc1,0,16
C=c1cc(C)n(CC(=O)Nc2ccc3c(c2)OCO3)c(=O)c1=C1N=C(c2ccccc2)NO1,-1,-9
CN(C)C(=O)c1ccc(-c2ccc(CC(=O)O)cc2)cc1,3,2
COC(=O)CCCC(=O)N1CCC(CCc2ccc3c(c2)OCO3)CC1,4,6
COc1cccc(-c2cc(C(=O)N3CCN(c4ccccc4Cl)CC3)nc3cc(-c4ccccc4)nn23)c1,1&16,1&19
Cc1[nH]n(-c2ccccc2)c(=O)c1[N+](=O)[O-],-15,-16
O=c1c2cc(Cl)ccc2ncn1Cc1csc(-c2cccs2)n1,-1,3
CN(Cc1nc(C2CC2)no1)C(=O)[C@@]12CC[C@@](C)(OC1=O)C2(C)C,-2,-6
CSCCC(C)NC(=O)N1CCSC(C)(C)C1 (configuration not stated),6,5
COc1cccc(C2CC3(CC(C)(C)NC(=S)N3)Oc3cc(O)ccc32)c1 (configuration not stated),-2,-3
Cc1cc(N2CCCC(c3ccn[nH]3)C2)c2cc3c(cc2n1)OCO3 (configuration not stated),-1,-3
CC(Oc1ccc(-c2nc3ccccc3s2)cc1)C(N)=O (configuration not stated),0,7
COc1ccc2c(c1)OCC(C=C1N=C(c3ccccc3F)OC1=O)=C2,19,20
c1ccc(CCN2CCCC3(CCN(Cc4ccc5nsnc5c4)C3)C2)cc1 (configuration not stated),-2,-6
CCOC(=O)CCNC(=O)N1CCC(Cc2ccc(Cl)cc2)(C(=O)OCC)CC1,1&3,-3&2
Cc1cc(C)cc(CC(=O)N2CCC2(C)C(=O)N(C)Cc2ccccc2)c1 (configuration not stated),7,5
CC(Sc1nnc(C2CC2)n1C1CC1)C(N)=O (configuration not stated),4,11
CC(C)C(=O)N(Cc1ccccc1OS(C)(=O)=O)C1CC1,-3,7
CC1(C2CCN(C(=O)Cc3ccc4c(c3)OCO4)CC2)NC(=O)N(C2Cc3ccccc3C2)C1=O (configuration not stated),1,-1
Fc1ccccc1N=C1Nc2cccc3cccc1c23,6,3
COc1cccc(C(=O)c2c(N)c(C(=O)Nc3ccccc3C)c3ccccn23)c1,-2,-7
COc1ccc(-c2onc(C)c2C(=O)NCCc2ccncc2)cc1,-12,-9
Cc1onc(-c2ccccc2Cl)c1C(=O)Nc1cccc2ccccc12,-5,-6
O=C(COCc1ccccc1)Nc1cccc(-c2cccc(-c3ccc(F)cc3)n2)c1,-12,-6
O=c1ccnc(SCc2ccc(CSc3nccc(=O)[nH]3)cc2)[nH]1,5,1
CCN1CCN(C(c2cccc(F)c2)c2c(O)cc(C)n(CCOC)c2=O)CC1 (configuration not stated),6,2
COc1cccc(C(=O)OCCN2C(=O)C3C4c5ccccc5C(c5ccccc54)C3C2=O)c1 (configuration not stated),-2,-6
COC(=O)c1ccc(-c2nc(CN(C)Cc3nonc3C)c(C)o2)cc1,4&-13,4&-14
Cc1cccc(COC(CN2CCN(S(=O)(=O)c3cccc(OC(F)F)c3)CC2)c2ccc(Cl)cc2)c1 (configuration not stated),26,17
Cc1cc(C(=O)O)ccc1S(=O)(=O)Nc1ccccc1-n1c(C)c[nH]c1=O,9,5
Cc1cccc(-n2nc3c(c2NC(=O)/C=C/c2ccccc2)CSC3)c1,-2,-5
CC(=O)N(C)C1CCN(c2cc(C)c3ccc(Cl)cc3n2)C1 (configuration not stated),2,-5
CCOC(=O)c1[nH]c2ccccc2c1NC(=O)c1ccccc1C(=O)c1ccccc1,0,8
CC1CN(Cc2csc(NC(=O)COc3cccc4ccccc34)n2)CC(C)O1 (configuration not stated),2,0

# Going on with the list.
SMILES,NPYLR7 ag,NPYLR7 ag max-min
CCOCCCNC(=O)c1cc(NC(=O)c2ccc(Cl)c([N+](=O)[O-])c2)ccc1N1CCN(c2ccccc2OC)CC1,20,22
CCc1ccc(-c2nccn2-c2ccccc2CCO)nc1,20,11
COCC(=O)N1CCSC12C(=O)N(Cc1ccccc1Cl)c1ccc(F)cc12 (configuration not stated),19,19
CCCCCN(Cc1cccn1Cc1cccc(C(F)(F)F)c1)C(=O)Nc1ccccc1F,21,25
COc1cccc(CCNC(=O)Cn2nnnc2CN2CCCCCC2)c1OC,11,6
O=C(NCc1cccc(Cl)c1)c1cc(N2CCSCC2)nc2ccccc12,11,7
CCc1nc(NCCNS(=O)(=O)c2ccsc2C(=O)OC)c2cc(Cl)cc(Cl)c2n1,4,0
CCCC(=O)NCC(=O)Nc1cc(C)nn1-c1cc(C)cc(C)c1,3,1
Cc1ccc(C(C)(C)C)cc1S(=O)(=O)N1CC2(C)CC1CC(C)(C)C2 (configuration not stated),16,13
O=C(c1ccc2n[nH]nc2c1)N1CCCC(c2[nH]ncc2-c2ccccc2)C1 (configuration not stated),3,2
CC(C)(C)Nc1c(-c2ccccc2)nc2ccc(Cl)cn12,0,5
CCOc1ccc2ccccc2c1C(=O)NCCCOc1cccc([N+](=O)[O-])c1,27,4
O=C(c1cccc(F)c1)N1CCC(c2nc(-c3ccc(C(F)(F)F)cc3)no2)CC1,5,-1
Cc1nc2ncnn2c(C)c1CCc1nn2c(CC(C)C)nnc2s1,9,-1
Cc1ccccc1COC1CCCN(C(=O)C2CCC2)C1 (configuration not stated),-9,0
Cc1ccn(-c2ccc(N[C@@H]3c4ccccc4C[C@@H]3O)nn2)n1,3,5
CCOCC(=O)Nc1cc(-n2nnnc2C2CC2)ccc1F,15,11
CN(Cc1cccc(C(=O)Nc2nccs2)c1)Cc1cnccn1,2,2
CCc1cc(NC(=O)N(C)CCOCC2CC2)n(C)n1,5,3
OC12OC34CCCCC3CC13CCCC2CC1CCCCC13O4 (configuration not stated),0,-2
Cc1ccc(Cn2nnc3c(=S)nc[nH]c32)cc1,-3,-4
O=c1c2ccccc2[nH]c(=S)n1CC1CCCO1 (configuration not stated),16,15
O=C(CCN1Cc2ccccc2OC(c2ccccc2F)C1)N1CCCCC1c1cccnc1 (configuration not stated),41,21
COCCN(Cc1nccn1Cc1cccc(F)c1)S(=O)(=O)c1ccc(OC)cc1,2,12
CC(=O)c1ccc(S(=O)(=O)N2CCN(C(=O)c3ccncc3)CC2)cc1,-5,-9
CCCCOc1ccc(C(=O)N(CC(=O)NCC(=O)Nc2cccc(C)c2)C2CC2)cc1,18,17
Cc1ccc(C2C(=C(O)c3ccc(F)cc3)C(=O)C(=O)N2Cc2cccnc2)cc1 (configuration not stated),6,8
CCOc1ccccc1N1C(=O)CSC1c1cccc(NC(=O)c2cccc(Cl)c2)c1 (configuration not stated),4,21
CCOC(=O)c1c(NC(=O)c2nn(C)cc2Cl)sc2c1CCCC2,-12,-16
O=C(Cc1ccccc1F)NC1CCc2[nH]c3cc(Cl)cc(Cl)c3c2C1 (configuration not stated),25,15
Cc1nn(CC(=O)Nc2cc(Oc3cccnc3)cc([N+](=O)[O-])c2)c(C)c1[N+](=O)[O-],7,8
CC1=NC(C)=C(C#N)C(c2ccc(C(C)C)cc2)C1C#N (configuration not stated),1,1
COC(=O)/C(C#N)=C/c1c(Oc2ccc(Cl)c(C)c2)nc2ccccn2c1=O,14,16
Fc1ccccc1-c1noc2nc(Oc3cncc(Cl)c3)ccc12,6,6
C=CCNC(=O)C1(NC(=O)C2CC3C=CC2C3)CCCCC1 (configuration not stated),-8,-8
CCOc1cccc(OCCN2CCC(C(=O)NC)C2)c1 (configuration not stated),0,2
CC1=C(c2ccccc2)N=C(c2ccccc2)OC1=CC=[N+](C)C,9,8
Cn1cccc1C(=O)NNC(=O)Nc1cccc(Cl)c1,8,5
O=C(CSc1nc2ccccc2s1)n1c2c(c3ccccc31)CCCC2,2,-1

# Structural class: the compounds so far with an NH in an aromatic ring
SMILES,NPYLR7 ag,NPYLR7 ag max-min
COc1ccc2[nH]c(S(=O)Cc3ncc(C)c(OC)c3C)nc2n1 (configuration not stated),3,2
O=c1nc(/C=C/c2ccc(Cl)cc2)cc(C(F)(F)F)[nH]1,-3,-5
O=C1C2CCCCC2C(=O)N1c1n[nH]c(CCc2ccccc2)n1 (configuration not stated),-2,-4
CCc1cc(=O)[nH]c(CN2CCCN(C(=O)c3ccsc3)CC2)n1,-1,-1
COc1ccc(-c2c(C)n[nH]c2C)cn1,-4,-14
Cc1[nH]n(-c2ccccc2)c(=O)c1[N+](=O)[O-],-15,-16
Cc1cc(N2CCCC(c3ccn[nH]3)C2)c2cc3c(cc2n1)OCO3 (configuration not stated),-1,-3
O=c1ccnc(SCc2ccc(CSc3nccc(=O)[nH]3)cc2)[nH]1,5,1
Cc1cc(C(=O)O)ccc1S(=O)(=O)Nc1ccccc1-n1c(C)c[nH]c1=O,9,5
CCOC(=O)c1[nH]c2ccccc2c1NC(=O)c1ccccc1C(=O)c1ccccc1,0,8
O=C(c1ccc2n[nH]nc2c1)N1CCCC(c2[nH]ncc2-c2ccccc2)C1 (configuration not stated),3,2
Cc1ccc(Cn2nnc3c(=S)nc[nH]c32)cc1,-3,-4
O=c1c2ccccc2[nH]c(=S)n1CC1CCCO1 (configuration not stated),16,15
O=C(Cc1ccccc1F)NC1CCc2[nH]c3cc(Cl)cc(Cl)c3c2C1 (configuration not stated),25,15

# Screens (PubChem)
